# Bioassay records: PubChem, National Center for Advancing Translational Sciences (NCATS)
# TRPML1 inh = blocks the human TRPML1 channel; 390,000 tested, 0.02% active; AID 624415; Q9GZU1; TRPML1-inducible cells, Ca2+ dye fluorescence, FDSS; stronger effect = lower value; inhibition of EC80 agonist-evoked calcium signal; activity change, negative = inhibition, % (concentration not given with the values); in the data active means activity change below about -50%; inconclusive means about -30% to -50%; inactive means above about -30%;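 also: stimulus is agonist 54-4 at its EC80 concentration; % is scaled to controls: 0 for no effect and ±100 for the full control effect; compound concentration not given in the record; the text of the record puts the active cut at -80%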
#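 Calcium fluorescence in TRPML1-DL cells induced overnight with Tet: a 110 s read after compound pin addition, then a 110 s antagonist read after challenge with 54-4 at 4 uM final (EC80).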
# TRPML1 ag = agonists of human TRPML1 channel | activation, % (test concentration not listed) | Q9GZU1 | TRPML1-expressing cells, Ca2+ dye fluorescence, FDSS; host cell line not named in the record; reference of the full effect not given here | 410,000 tested, 0.12% active; in the data active = activation above about 50%; inconclusive = about 30% to 50%; inactive = below about 30%; also: 0% is about no effect; the text of the record puts the active cut at 80%
#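 Cells: TRPML1-DL, 1X Tet inducer, ~16 h at 37 degrees C/5% CO2. Dye: ABD Ca8 no-wash + quencher, 45-90 min RT. Read: 10 s baseline, compound add, 110 s agonist phase; 54-4 EC80 (4uM final), 110 s antagonist phase.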
# TRPV1 PAM = enhances activation of the human vanilloid receptor TRPV1; potentiation, % at 8.33 µM; 320,000 tested, 0.02% active; TRPV1-expressing cells, Fluo-8 calcium influx, capsaicin EC20 potentiation; host cell line not named in the record; control for the full effect not named in the record; active means potentiation above 80%; inconclusive means 30% to 80%; inactive means below 30%; also: 0% is about no effect
# Target sequence (Q8NER1 whole entry, looked up): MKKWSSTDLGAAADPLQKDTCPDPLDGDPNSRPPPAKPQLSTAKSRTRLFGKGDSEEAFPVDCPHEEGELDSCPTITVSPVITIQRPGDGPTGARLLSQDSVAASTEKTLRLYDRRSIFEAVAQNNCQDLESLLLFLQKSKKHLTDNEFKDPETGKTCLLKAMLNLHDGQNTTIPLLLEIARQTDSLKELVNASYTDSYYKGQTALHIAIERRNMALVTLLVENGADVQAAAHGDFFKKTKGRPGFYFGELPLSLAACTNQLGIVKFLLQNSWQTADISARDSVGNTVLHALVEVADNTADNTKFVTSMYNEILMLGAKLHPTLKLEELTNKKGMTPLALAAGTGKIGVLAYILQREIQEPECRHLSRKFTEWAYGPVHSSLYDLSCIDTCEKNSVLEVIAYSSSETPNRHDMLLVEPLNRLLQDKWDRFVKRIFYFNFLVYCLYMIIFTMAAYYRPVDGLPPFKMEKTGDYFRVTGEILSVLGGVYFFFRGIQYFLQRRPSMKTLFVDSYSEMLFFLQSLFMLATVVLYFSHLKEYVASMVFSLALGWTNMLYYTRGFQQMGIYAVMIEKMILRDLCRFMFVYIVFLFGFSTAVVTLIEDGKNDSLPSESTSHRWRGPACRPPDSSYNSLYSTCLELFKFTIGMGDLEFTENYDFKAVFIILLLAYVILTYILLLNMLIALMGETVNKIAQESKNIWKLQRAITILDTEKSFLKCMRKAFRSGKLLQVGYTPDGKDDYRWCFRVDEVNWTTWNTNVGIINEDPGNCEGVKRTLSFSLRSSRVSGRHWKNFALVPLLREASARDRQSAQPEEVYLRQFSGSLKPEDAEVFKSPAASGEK
#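 TRPV1-expressing cells were cultured overnight at 35.5C and loaded with Fluo-8 calcium dye for 40 to 90 min at room temperature. After a 10 s baseline, compound was added and calcium influx was read kinetically for 3 min (ex 480/em 520 nm).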
# ClpP mod = qHTS Assay for Activators of ClpP. Potency, µM (highest dose often 57.5 µM), for the others: at the highest dose activity change, negative = active. ATP-dependent Clp protease proteolytic subunit (Bacillus subtilis (strain 168)), P80244. purified B. subtilis ClpP, FRET peptide cleavage, 20 min. 340,000 tested, 1.9% active; active = well fitted falling curve with a large enough effect; inconclusive = small, poorly fitted or top-dose-only effect; inactive = no such curve, though single readings can be large or run the other way; also: potency is read from the fitted curve at half-maximal effect; the source files actives as falling curves though it sought activators and does not explain the sign; nearly all actives have a fitted effect of over 65% in size; many hits overshoot -100%
# Target sequence (P80244 whole entry, looked up): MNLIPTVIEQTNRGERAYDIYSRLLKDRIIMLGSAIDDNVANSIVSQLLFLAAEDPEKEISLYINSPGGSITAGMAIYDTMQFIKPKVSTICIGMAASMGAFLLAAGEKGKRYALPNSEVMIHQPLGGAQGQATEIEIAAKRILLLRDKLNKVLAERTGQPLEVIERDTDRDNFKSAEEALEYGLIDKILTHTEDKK
#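 Purified B. subtilis ClpP, 10 microg/mL final in Tris/HCl pH8 with KCl, BSA, glycerol and Tween-20, cleaved an Abz/nitrotyrosine-quenched decapeptide. Fluorescence (ex 320, em 430) was read at 0 and 20 min at room temperature. Delta was normalized to 5.8 microM ADEP and DMSO/no-enzyme controls.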
# Menin MLL FP FL = menin-MLL binding inhibition, fluorescein peptide; Fluorescence polarization, fluorescein-MLL peptide displacement from menin; FP activity change, % at 61.4 µM; 290,000 tested, under 10 active; AID 1766; inconclusive = falling polarisation curve, or a change in total fluorescence; inactive = total fluorescence flat and polarisation flat or rising; no compound was filed as active; the % refers to the polarisation; negative = inhibition;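 also: % of control where 0% means no effect; inhibitors lower the polarisation; unlabelled MLL peptide was the positive control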
# PINK1 expr mod = PINK1 expression modulation; PINK1 immunofluorescence, high-content cytometry, 24 h; AID 624263; 410,000 tested, 0.2% active; Potency, µM (highest dose often 76.6 µM), inactives show at the top dose activation (PINK1 increase), actives largely listed as activators; active = well fitted activation curve with a large enough effect; inconclusive = small, poorly fitted or top-dose-only effect; inactive = flat fitted curve, though single readings scatter; cell line not stated here;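 also: potency is read from the fitted curve at half-maximal effect; % of control where 0% means no effect; nearly all actives have a fitted effect of over 65% in size; a mitochondrial uncoupler was the plate control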
#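 Measures PINK1 amount and localization on or inside mitochondria by immunofluorescence. Stable cells get compounds at 5 concentrations for 24 hours before fixation and staining; CCCP controls included.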
# Sfp inh = inhibitors of Bacillus subtilis Sfp phosphopantetheinyl transferase; Biochemical Sfp PPTase activity, qHTS; Potency, µM, for inactives: max response, negative = inhibition, hits mostly inhibitors; 310,000 tested, 3.5% active; active = well fitted inhibition curve with a large enough effect; inconclusive = small, poorly fitted or top-dose-only effect, or another doubt; inactive = no such curve, though single readings can be large or run the other way;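 also: the enzyme is Sfp with the accession as filed and its product quenches rhodamine fluorescence; potency is read from the fitted curve at half-maximal effect; 0% = enzyme reaction without inhibitor and -100% = no enzyme wells; top concentration of the series not given in the record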
#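 Reaction rates are the 30-min fluorescence difference (ex 525, em 598 nm) in wells containing 15 nM Sfp, 5 uM rhodamine-CoA and 12.5 uM BHQ-2-YbbR at pH 7.6 with 10 mM MgCl2.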
# An asterisk follows results filed as active; ? = inconclusive; / = not tested or not shown; & = joins results of further samples; [ ] = another dose, or the depositor's remark.
SMILES,TRPML1 inh,TRPML1 ag,TRPV1 PAM,ClpP mod,Menin MLL FP FL,PINK1 expr mod,Sfp inh
C=CCn1c(SCC(=O)N2N=C(c3ccco3)CC2c2ccco2)nnc1-c1ccncc1 (stereo not given),-1.6,0.3,2.9,-1.4%,3.9,-0.7%,12.2%
O=C1C=C(O)c2[nH]c(=O)ccc2C1=O,-11.9,-0.6,/,3.6%,/,-2.9%,/
O=C(Nc1ccc(S(=O)(=O)N2CCOCC2)cc1)c1ccc(Cl)cc1,54.2,-0.4,-8.7,-2.6%,0.9,3.0%,-14.2%
Cc1ccc2c(CC(=O)OC3CCOC3=O)coc2c1 (stereo not given),-9.5,0.0,-0.4,-3.4%,3.7,1.2%,19.2%
CC(=O)N1c2ccc(S(=O)(=O)N3CCC(C(=O)NC(C)c4ccccc4)CC3)cc2CC1C (stereo not given),-19.3,-0.7,?,1.2%,2.1,2.0%,13.7%
CCN1CCC(NC(=O)Nc2ccc(F)cc2F)CC1,-15.1,0.2,9.5,/,2.8,0.3%,3.5%
COCc1cc(C)nc2sc(C(=O)Nc3ccc(C(C)=O)cc3)c(N)c12,-14.1,0.7,/,-9.0%,/,2.7%,/
CC1CCCC(NC(=O)c2ccc(CNc3c(N4CCCC4)c(=O)c3=O)cc2)C1C (stereo not given),-6.1,-0.1,17.3,-2.7%,2.2,0.1%,12.0%
Cc1cc(NC(=O)CCC(=O)N(CC(=O)NCC2CCCO2)c2cccc(F)c2)no1 (stereo not given),27.8,-1.1,2.0,-26.6%,-0.2,2.2%,2.4%
CCCCCCOc1ccc(/C=C/C(=O)Nc2sc3c(c2C(=O)OC)CCC3)cc1OC,8.5,-0.5,/,-7.5%,/,-2.1%,/
CCOc1ccc(CC(=O)NC2CC(=O)N(c3ccc4c(c3)OCCO4)C2)cc1 (stereo not given),23.2,0.4,/,-1.6%,/,-0.3%,/
Cc1ccc(NC(=O)c2ncn(CCCN3CCN(Cc4cccc5ccccc45)CC3)n2)cc1C,24.3,-0.2,/,-4.5%,/,-1.2%,/
CCOC(=O)[C@]12CCC=C1N(Cc1ccc(Cl)cc1Cl)C(=O)[C@H](CC(=O)NCCCN1CCCC1=O)C2,/,0.3,/,-4.2%,/,0.0%,/
COc1cccc(-c2c(NC(=O)c3ccco3)oc3ccccc3c2=O)c1,/,/,9.6,-2.9%,0.0,0.6%,5.4%
Cc1ccccc1NC(=S)NC(NC(=O)c1ccccc1C)C(Cl)(Cl)Cl (stereo not given),-9.4,1.2,1.0,1.4%,0.1,-1.1%,12.4%
CC(C)C12CCC(C(=O)O)C(C1)C(=O)O2 (stereo not given),-10.3,0.1,-2.9,-0.9%,6.1,-1.3%,21.8%
CC(=O)c1ccc(NC(=O)CSc2nccn2C)cc1,25.2,-0.7,-6.6,1.9%,0.1,-0.2%,5.1%
CC1CC(C)CN(CCCNC(=O)C2CCN(S(=O)(=O)N3CCCCC3)CC2)C1 (stereo not given),24.8,0.4,?,-1.0%,0.1,2.2%[38.3 µM],12.8%
Cc1ccc(CNc2nnc(C)c3nnn(Cc4ccc(F)cc4)c23)cc1,1.8,-0.2,/,-1.5%,/,-0.2%,/
CC1=NN(c2ccc(C(=O)O)cc2)C(=O)/C1=C/c1ccc(-c2ccccc2F)o1,/,/,-6.9,/,-13.7,/,-20.9%
CC(=O)c1ccc(NC(=O)Cn2cc3c(n2)CCCC3)cc1,-1.8,-0.6,/,-1.0%,/,-0.7%,/
Cc1ccc(C(=O)/C=C/c2ccc(Br)cc2)o1,-4.3,0.8,-11.2,0.9%,2.3,-5.1%,12.3%
CCCN1CCc2c(sc(NC(=O)CCS(=O)(=O)c3ccccc3)c2C(=O)OC)C1,-20.2,-0.5,0.3,-1.6%,/,2.5%,-11.9%
COC(=O)c1ccsc1NC(=O)CN1CCN(c2ncccn2)CC1,-9.9,1.1,1.9,-1.6%,-1.7,-0.5%,4.8%
O=C(O/N=C1\CCCCC1c1ccc([N+](=O)[O-])cc1[N+](=O)[O-])c1c(F)cccc1F (stereo not given),3.1,15.5,/,-0.3%,0.1,0.1%,?
COc1ccccc1Nc1nc(NCc2ccco2)c2ccccc2n1,-11.6,3.0,-6.8,/,-1.3,?,-29.1%
O=C(NCc1ccco1)c1csc2c1CCCCC2,-2.2,0.4,-3.3,-2.5%,3.7,-1.8%[38.3 µM],8.7%
COc1ccc(C(CC(=O)Nc2cc(OC)c(OC)c(OC)c2)N2Cc3ccccc3C2=O)cc1 (stereo not given),22.0,-0.7,/,-0.8%,/,0.6%,/
CC(C)c1ccc(C(=O)NNC(=O)c2n[nH]c(=O)c3ccccc23)cc1,7.2,2.0,1.9,-2.0%,/,-0.4%,/
O=C(COC(=O)CCc1ccc(S(=O)(=O)N2CCOCC2)cc1)NCc1ccccc1,-5.5,0.0,18.2,/,-1.5,-0.9%,3.7%
CCOc1ccc(S(=O)(=O)N2CCN(C(=O)c3cc(-c4ccccc4)nn3-c3ccccc3)CC2)cc1,3.6,1.1,4.1,-5.0%,/,3.1%,/
O=C(CN1CCN(S(=O)(=O)c2ccc(Cl)cc2)CC1)c1ccc(O)c(O)c1,7.2,0.2,1.1,-2.3%,/,0.7%,56.2µM*
Cc1ccc(CSCCNC(=O)c2ccccc2)cc1,9.6,2.7,-19.2,-2.2%,-2.3,-0.9%,2.8%
CC(C)CN1CC2(CCN(C(=O)c3cccc(F)c3)CC2)C1,/,/,/,/,-11.6,-0.9%,-5.4%
CCc1c(C)nc(SCC(=O)N2CCN(c3ccccc3OC)CC2)[nH]c1=O,-21.5&4.7,0.6&0.4,11.0,0.9%,4.7,-0.8%&1.5%,11.0%
CCc1cccc(C)c1N(C(=O)Cn1c(=O)[nH]c2ccccc21)C(C)COC (stereo not given),8.2,0.3,-20.4,-2.4%,7.5,-1.3%,2.6%
CC(C)CC(=O)n1nc(-c2ccco2)nc1NCc1ccc(Cl)cc1,28.2,-0.3,/,-1.2%,/,0.1%,/
CCCC1=Nc2cc(C(=O)NC(C)c3ccccc3)ccc2Sc2ccc(C)cc21 (stereo not given),-15.3,0.5,/,-0.1%,/,5.6%,/
CCCCN(CC)CCCNC(=O)Cn1nc(Cc2cccnc2)c2ccccc2c1=O,-4.2,0.4,16.2,-10.3%,1.7,-3.1%,-15.7%
O=C(CN1CCN(CCOCCO)CC1)N1c2ccccc2Sc2ccc(Cl)cc21,-1.8,1.1,7.6,0.3%,-0.9,-1.0%,0.8%
COc1ccc(Cl)cc1C(=O)O/N=C(\N)c1ccc(Cl)cc1,-5.2,0.0,-0.7,7.2%,0.5,-3.6%,-0.8%
COc1ccc(OCC(=O)Nc2ccc(N3CCN(C(=O)c4ccccc4C)CC3)cc2)cc1,13.8,2.1,-1.7,/,0.1,0.7%,16.8%
CCOC(=O)c1ccc(NC(=S)NC2CC(C)(C)NC(C)(C)C2)cc1,8.6,0.9,-14.1,1.0%,0.6,3.0%[38.3 µM],-15.1%
Cc1[nH]c(C)c(S(=O)(=O)Nc2cccc(Cl)c2C)c1C(=O)N1CCCC1,2.7,0.3,?,0.5%,2.2,1.0%,15.3%
O=C(CN1CCN(c2ccc(Cl)cc2)CC1)Nc1ccc(F)cc1,1.0,-0.1,-14.4,-2.7%,3.8,4.0%[38.3 µM],-9.0%
CN(C)c1ccc(-c2nc(-c3ccncc3)no2)cc1[N+](=O)[O-],-5.5,-1.1,/,2.0%,/,5.8%,/
O=C(Cc1ccccc1)NCC(=O)Nc1cc(Cl)ccc1Cl,-9.0,-2.0,-0.2,-1.0%,1.3,6.0%,5.7%
COc1ccccc1Nc1nc(-c2c(C)nc3ncccn23)cs1,-0.8,3.4,-1.5,/,-0.1,4.8%,?
Cc1ccc2c(c1)N(C(=O)CCC(=O)NC1CCN(Cc3ccccc3)CC1)CC(C)O2 (stereo not given),-6.3,-0.1,8.3,0.9%,-1.6,0.7%,8.5%
Cc1ccc(-n2ncc(C(=O)N3CCc4ccccc4C3)c2NC(=O)c2ccco2)cc1C,41.3,2.5,2.9,-1.6%,5.8,2.3%[38.3 µM],-62.0%
Cn1c(=O)c2c(ncn2CC(=O)N/N=C/C=C/c2ccco2)n(C)c1=O,8.7,0.0,9.0,/,?,-0.7%,14.1µM*
Cc1nc(SCc2ccccc2F)c2cnn(-c3ccccc3)c2n1,/,/,7.7,/,-1.1,/,-11.1%
N#CC(=C1CCCC1)c1nc(-c2ccccc2)cs1,-7.9,-0.2,1.7,-2.0%,15.3,2.4%,-1.4%
CC(=O)c1cccc(NC(=O)C2=CC(c3ccc(F)cc3)=NS(=O)(=O)N2C)c1,-19.3,1.1,/,-0.7%,/,-1.3%,/
CC(C)(C)NC(=O)C(c1ccc(F)cc1)N(CC1CCCO1)C(=O)CCC(=O)Nc1ccccn1 (stereo not given),-7.2,-1.0,0.9,0.3%,-8.0,-0.1%,20.6%
CCOc1ccc(C(=O)NC(=S)Nc2ccc(NC(=O)CC)cc2)cc1[N+](=O)[O-],2.5,0.6,-6.8,1.2%,-2.3,2.1%,-9.7%
CCOc1ccc(CN(C)C(=O)c2cccnc2OCC)cc1OC,-25.1,-0.6,-0.8,/,-2.4,4.8%,3.0%
CC1CC(C)CN(CC(C)(C)NS(=O)(=O)c2ccccc2)C1 (stereo not given),-4.7,0.9,-14.3,-1.5%,0.7,/,-13.9%
O=[N+]([O-])c1ccc(CC(Cl)c2ccccn2)cc1 (stereo not given),-8.7,0.2,/,/,/,0.7%,/
COC(=O)c1ccc(COc2ccc3ccc(=O)oc3c2)o1,2.1,0.1,7.3,3.0%,5.4,1.6%,16.9%

# Carrying on:
SMILES,TRPML1 inh,TRPML1 ag,TRPV1 PAM,ClpP mod,Menin MLL FP FL,PINK1 expr mod,Sfp inh
CCOc1ccc(N2CC(C(=O)NCCN3C(=O)S/C(=C\c4ccc(OC)cc4)C3=O)CC2=O)cc1 (stereo not given),-3.1,0.7,-19.1,4.2%,-0.7,17.8%,-5.0%
O=C1C2CCCN2C(c2ccccc2)N1c1cccc(Cl)c1 (stereo not given),3.7,0.3,9.3,-0.2%,1.9,4.6%,0.4%
Cc1cc(-c2ccc(C)c(S(=O)(=O)N(Cc3cccs3)C(C)C)c2)on1,56.4,0.6,/,-1.9%,/,1.6%,/
CC(=O)c1cccc(-n2c(=O)c3c4c(sc3n(CC(=O)c3ccc(Cl)cc3)c2=O)CN(C(C)=O)CC4)c1,1.2,0.1,/,0.7%,/,2.4%,/

# No enrichment for hits, and some 4.4% of all compounds hit somewhere here.
